# Mtb bLac sens – beta-lactam sensitization of Mtb H37Rv; actives 0.27% (n = 330,000); inhibition, % at 25 µM; M. tuberculosis H37Rv growth with meropenem, percent inhibition; hits of this screen are not shown here; AID 434955;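 active = about 74% or more and at least 40 points above the plate without the antibiotic, then above 30% in a dose series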;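 also: growth measured after seven days incubation then overnight dye step; 0% = bacteria only wells and 100% = bacteria with antibiotic; twin plates without the antibiotic show which effects depend on it; some results filed as inactive read as strong as hits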
# Arbovirus anti – antivirals against arbovirus infection | AID 1251 | inhibition, % at 10 µM | arbovirus infection cell-based antiviral screen | actives 0.37% (n = 200,000);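 active = inhibition from about 30%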;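 also: bluetongue infection of BSR cells; cell survival read as ATP light after 72 h; 0% = infected wells without compound and 100% = uninfected wells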
# Mtb growth – M. tuberculosis H37Rv growth inhibitors, H37Rv strain (AID 1626) | M. tuberculosis H37Rv growth inhibition; higher % means a stronger effect | inhibition, % at 10 µM; hits with a dose series show IC50 in µM | actives 0.95% (n = 220,000);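 active = confirmed in a dose series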;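 also: bacteria incubated seven days before Alamar blue readout; 0% = bacteria only wells and 100% = bacteria with antibiotic wells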
# RecA intein inh – inhibitors of M. tuberculosis RecA intein splicing; actives 0.75% (n = 290,000); cell-free RecA intein splicing, fluorescence; P9WHJ3; inhibition, %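 (about 9 µM by stock and volumes)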; in the data active = inhibition above about 30%;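 also: 0% = vehicle wells and 100% = reference inhibitor control wells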
# Target sequence (P9WHJ3 whole entry, looked up): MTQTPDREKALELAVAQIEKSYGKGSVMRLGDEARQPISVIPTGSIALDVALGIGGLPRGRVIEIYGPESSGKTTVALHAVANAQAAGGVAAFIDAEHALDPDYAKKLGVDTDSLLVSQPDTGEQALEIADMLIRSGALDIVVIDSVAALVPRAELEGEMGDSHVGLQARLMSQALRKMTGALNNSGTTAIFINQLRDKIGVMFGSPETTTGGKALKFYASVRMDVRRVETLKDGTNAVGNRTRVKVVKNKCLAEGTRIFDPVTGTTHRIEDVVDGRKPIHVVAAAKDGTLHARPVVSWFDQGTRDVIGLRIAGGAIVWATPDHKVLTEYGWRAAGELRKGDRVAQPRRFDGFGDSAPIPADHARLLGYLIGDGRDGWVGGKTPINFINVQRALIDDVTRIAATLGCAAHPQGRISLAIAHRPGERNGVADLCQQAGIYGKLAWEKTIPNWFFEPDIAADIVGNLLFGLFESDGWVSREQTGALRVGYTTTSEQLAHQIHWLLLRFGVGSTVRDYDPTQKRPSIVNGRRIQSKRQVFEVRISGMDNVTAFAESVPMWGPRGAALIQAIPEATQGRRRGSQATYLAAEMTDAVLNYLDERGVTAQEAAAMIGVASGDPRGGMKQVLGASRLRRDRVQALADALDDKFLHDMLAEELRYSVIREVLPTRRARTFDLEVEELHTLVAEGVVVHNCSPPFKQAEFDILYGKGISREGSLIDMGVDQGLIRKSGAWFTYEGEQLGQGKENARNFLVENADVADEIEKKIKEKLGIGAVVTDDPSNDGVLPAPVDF
# YopH PTP inh – blocks Yersinia enterocolitica YopH tyrosine phosphatase; fluorescence Ex485/Em525; inhibition, %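 (about 10 µM by stock and volumes)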; actives 0.16% (n = 140,000);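 active = inhibition of 50% or more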;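 also: controls were vehicle for no effect and minimum signal wells for full effect; inactives centre near -20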
# Arbovirus anti repeat – second read-out of Arbovirus anti, no call of its own (marks repeat the call); inhibition, %; measured here: 10K subset replicate screen; many hits read low in the repeat;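 first of two repeat runs on a subset; 0% = infected and 100% = uninfected wells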
# * hit, by the source's call; · = not tested or not shown. A portion of the library; rates above refer to the full screens.
SMILES,Mtb bLac sens,Arbovirus anti,Mtb growth,RecA intein inh,YopH PTP inh,others
COc1c(/C=N/NC(=O)c2ccccc2O)c(CCN(C)C(C)=O)cc2c1OCO2,-4.9,2.5,-7.3%,-3.7,-26.3,
CN(C)CCNC(=O)c1c(CSc2ccccc2)noc1C(=O)NCc1ccccc1,-3.1,·,-7.0%,-2.7,·,
COc1ccc(OC)c(NC(=S)N2CCN(Cc3ccccc3)CC2)c1,-2.5,0.2,4.5%,-1.4,·,
CC(C)Cn1c(N)c(C(=O)CSc2nccn2C)c(=O)n(C)c1=O,-6.5,·,·,10.0,·,
CCN(CC)CCOc1ccccc1OC,-4.7,·,·,-0.8,·,
O=C(NCCc1ccc(Cl)cc1)C1CCC(=O)N1C1CCCC1 (stereo not drawn),-0.1,-0.4,-6.5%,4.8,-21.2,
Cc1cc(NC(=O)c2cccs2)ccc1NC(=O)Cc1ccccc1,-5.3,-4.8,-1.3%,0.9,·,
Cc1ccc(CSc2nnc(-c3cccnc3)o2)cc1,6.8,1.7,-1.0%,-1.8,-9.0,
Cn1c(=O)oc2cc(S(=O)(=O)N3CCN(c4ccccc4F)CC3)ccc21,2.4,·,·,-3.7,·,
CCC1CCCCN1C(=O)c1ccccc1OC1CCN(S(C)(=O)=O)CC1 (stereo not drawn),-0.3,-7.4,10.8%,0.9,·,
CCCOc1cccc(C(=O)NCCNC(=O)c2ccccn2)c1,1.7,·,·,-1.2,·,
Cc1ccnc(NS(=O)(=O)c2ccc(CC(C)C)cc2)c1,4.0,3.7,10.1%,0.5,-16.2,
CC(C)n1c(C(F)(F)F)nc2cc(C(=O)N3CCCCC3)ccc21,-3.7,·,4.0%,-0.3,·,
O=C(CN1CCCN(S(=O)(=O)c2ccc(Br)cc2)CC1)Nc1ccc2c(c1)OCO2,·,-15.5,2.0%,-1.1,-31.8,
CN(C)c1ccc(C(=O)/C=C/c2ccco2)cc1,0.8,-6.3,6.3%,1.7,-27.0,
O=C(N1CCCCC1)N1CCCN(C(=O)N2CCCCC2)CC1,-6.2,4.3,1.6%,-3.3,-0.3,
CC(C(=O)NCCS(=O)(=O)c1ccc(Br)cc1)S(=O)(=O)c1ccc(Cl)cc1 (stereo not drawn),3.0,·,·,-1.1,·,
COc1ccccc1-n1cc(CN2CCN(CC=C(C)C)C(CCO)C2)cn1 (stereo not drawn),-9.3,·,1.1%,-3.8,·,
CC(=O)Nc1ccc(S(=O)(=O)Nc2nccc(/C=C/c3ccc(Cl)cc3)n2)cc1,8.6,14.7,-0.8%,0.4,-23.9,
Cc1cnn(C(=S)NCC2CCCO2)c1 (stereo not drawn),4.3,3.6,-6.8%,-2.2,-14.8,
O=C(N1CCCC1)C12CCC3CC(CC(C3)C1)C2,-7.2,-2.8,0.6%,·,2.5,
CCOc1ccc2nc(NC(=O)c3cccc(-c4cc5ccccc5oc4=O)c3)sc2c1,6.3,-32.9,-2.0%,0.9,-4.3,
Cc1ccccc1OCC(=O)NCC(=O)OCc1ccc(Br)cc1,-5.8,·,·,1.6,·,
O=C(CN(C(=O)CCC(=O)Nc1ccccn1)c1ccccc1F)NCc1ccc2c(c1)OCO2,1.7,·,·,-2.9,·,
COC(=O)c1sccc1NS(=O)(=O)c1ccc(OC)cc1,-6.2,-3.9,5.7%,2.4,-45.7,
COc1ccccc1NC(=O)N(Cc1ccccc1)C1=NCC(C)S1 (stereo not drawn),1.5,2.4,-6.7%,7.1,3.5,
O=C(C1=COCCO1)N1CCN(c2nc3ccc([N+](=O)[O-])cc3s2)CC1,0.5,·,·,0.2,·,
N#Cc1nc(-c2cccc3ccccc23)oc1NCCN1CCCCC1,20.6,-43.9,13.2%,-1.9,-13.0,
CNC(=O)Cn1nc(C)c2ccccc2c1=O,-7.9,-2.8,-9.0%,-0.9,-42.8,
CCOC(=O)C(CC)n1cnc2c(oc3ccccc32)c1=O (stereo not drawn),-4.9,-0.8,-4.3%,-0.5,-28.9,

# Some of these compounds in order of heavy-atom count, ascending:
SMILES,Mtb bLac sens,Arbovirus anti,Mtb growth,RecA intein inh,YopH PTP inh,others
CNC(=O)Cn1nc(C)c2ccccc2c1=O,-7.9,-2.8,-9.0%,-0.9,-42.8,
COC(=O)c1sccc1NS(=O)(=O)c1ccc(OC)cc1,-6.2,-3.9,5.7%,2.4,-45.7,
CCOC(=O)C(CC)n1cnc2c(oc3ccccc32)c1=O (stereo not drawn),-4.9,-0.8,-4.3%,-0.5,-28.9,
COc1ccccc1NC(=O)N(Cc1ccccc1)C1=NCC(C)S1 (stereo not drawn),1.5,2.4,-6.7%,7.1,3.5,
N#Cc1nc(-c2cccc3ccccc23)oc1NCCN1CCCCC1,20.6,-43.9,13.2%,-1.9,-13.0,
COc1ccccc1-n1cc(CN2CCN(CC=C(C)C)C(CCO)C2)cn1 (stereo not drawn),-9.3,·,1.1%,-3.8,·,

# Further structures:
SMILES,Mtb bLac sens,Arbovirus anti,Mtb growth,RecA intein inh,YopH PTP inh,others
Cc1ccc(-n2c(SCC(=O)N3CCOCC3)nnc2-c2ccncc2)cc1C,-4.2,·,·,-0.3,·,
O=C(NC1CCN(C(=O)c2cccc([N+](=O)[O-])c2)CC1)c1ccccc1,3.9,·,·,0.2,·,
O=C(c1ccccc1)N1CCC(c2nc3c(nnn3Cc3ccco3)c(=O)[nH]2)CC1,-0.2,9.6,2.0%,4.4,-41.4,
CCn1c(SCC(=O)Nc2ccc(OC)cc2)nc2nc3c(cc2c1=O)COC(C)(C)C3,-2.8,·,-6.2%,-0.2,·,
CC1CCCCC1NC(=O)c1ccc(S(=O)(=O)NCC2CCCO2)cc1 (stereo not drawn),1.7,-2.5,1.6%,-3.9,·,
Cc1ccccc1-c1nc(CS(=O)CC(=O)NC2CC2)c(C)o1 (stereo not drawn),2.0,·,·,-2.2,·,
CCOC(=O)c1cc(C)n(Cc2cccc(OC)c2OC)c1C,14.1,-2.4,-2.4%,6.9,-46.2,
O=C(Nc1ccccc1C(F)(F)F)N1CCN(c2ccc3nncn3n2)CC1,6.1,0.4,-6.7%,0.3,-42.5,
Cc1ccc(C(=O)Nc2ccncc2)o1,-1.4,4.0,-0.6%,-1.6,-7.8,
Cc1ccc(C)c(NC(=O)c2cc(C)nc3ccccc23)c1,-0.2,·,·,0.8,·,
COc1ccc(N2CCN(C(=O)CCCN3C(=O)c4cccc5cccc(c45)C3=O)CC2)cc1,0.4,-0.3,-0.4%,-0.1,-28.9,
COc1ccccc1CNC(=O)CN1C(=O)CSc2ccc(S(=O)(=O)N3CCCC3)cc21,-1.9,2.3,-3.7%,5.1,·,
CCCC(=O)Nc1ccc(NC(=O)c2ccccc2F)cn1,-11.2,·,·,0.2,·,
CC(C)(C)C(=O)c1no[n+]([O-])c1/C(=N/O)C(C)(C)C,5.1,18.6,-2.3%,6.7,-18.7,
Cc1ccc(SCCNC(=O)c2cccc([N+](=O)[O-])c2C)cc1,-8.6,4.5,3.9%,0.5,-21.9,
Cn1c(COc2ccccc2O)[n+](C)c2ccccc21,1.8,·,·,-3.2,·,
Cc1cccc(NC(=O)c2ccccc2OCC(=O)N2CCOCC2)c1C,-6.5,-3.2,-0.5%,-1.0,0.7,
COc1cccc(-n2c(CN3CCN(c4ccccc4)CC3)nc3ccc([N+](=O)[O-])cc3c2=O)c1,0.3,6.5,4.0%,0.2,12.8,
CC(C)c1cc(N2CCN(C(=O)c3ccco3)CC2)n2c(nc3ccccc32)c1C#N,-5.3,1.4,4.3%,-15.8,-30.1,Arbovirus anti repeat=-4.4
CN1CCN(c2ccc(Cl)cc2N)CC1,-10.3,-7.2,0.7%,-1.2,·,
C=CCN(CC=C)C(=O)CN1C(=O)NC(c2ccccc2)(c2ccccc2)C1=O,1.5,·,·,-1.5,·,
CCOC(=O)C1(CCOc2ccccc2)CCN(Cc2cccc(-n3cccn3)c2)CC1,94.3,8.8,-2.6%,6.1,·,
Cc1cc(C)n(C(=O)c2cc3c(s2)CCCC3)n1,20.6,8.5,-5.9%,8.7,-4.3,
COC(=O)Cc1cc(=O)[nH]c(/N=C(\N)Nc2ccccc2C)n1,-9.6,8.6,2.7%,-0.6,0.8,
CC(C)(C)NC(=O)CN(C(=O)CS(=O)CC(=O)Nc1ccc(F)cc1)c1ccc(F)c(Cl)c1 (stereo not drawn),-7.9,-0.3,-3.2%,-0.2,-55.8,
COc1ccc(CCNC(=S)N2CCN(S(=O)(=O)c3cccc(F)c3)CC2)cc1,-2.7,·,·,-1.8,·,
Cc1ccc(C)c(NC(=O)c2nnn(Cc3ccccc3C)c2N)c1,15.5,-26.3,8.5%,4.3,-43.4,
Cc1ccc(C(=O)c2cn[nH]c2-c2cc(Cl)ccc2O)cc1,-2.4,26.4,-11.9%,0.6,-48.0,Arbovirus anti repeat=-9.9
Cc1nnc(C)c2c(C)n(-c3ccc4ncccc4c3)c(C)c12,32.4,-6.2,-2.5%,-2.4,·,
COc1ccc(OC)c(NC(=O)c2csc(Cl)c2OC)c1,15.1,·,·,-1.1,·,
O=C(Nc1ccnc(-c2cccnc2)n1)c1ccc(Cl)c(Cl)c1,2.4,-9.5,-3.0%,-3.7,-46.0,
CCOC(=O)c1[nH]c(C)c(C(=O)NC2CCCCC2)c1C,2.8,4.1,1.7%,-0.3,3.9,
CC(=O)Nc1cccc(C(=O)OCC(=O)NCc2cc(C)c(O)c(C)c2)c1,-2.9,·,·,-4.2,·,
O=C(CSc1nnc(COc2ccccc2)o1)NC1CC2CCC1C2 (stereo not drawn),40.8,·,·,-4.4,·,
CCOc1nc(NCCO)nc(NCCC2=CCCCC2)n1,21.5,-9.9,-1.4%,-0.2,-15.9,
Cc1ccc2c(c1)N(CC(=O)NCCCN1CCOCC1)C(=O)C(C(C)C)O2 (stereo not drawn),0.7,·,·,1.3,·,
O=C(NCCc1cccc(Cl)c1)c1cccnc1,0.1,4.7,-2.1%,2.0,-29.0,Arbovirus anti repeat=-1.1
COc1ccc(C(CNC(=O)C(=O)NC2CCCCC2)N2CCN(C)CC2)cc1 (stereo not drawn),-5.3,·,·,-5.2,·,
CCc1cc(C(=O)c2ccc(OC)cc2)c(NC(=O)CC(C)(C)CC(=O)O)s1,-2.1,·,·,4.4,·,
Cc1ccc(C2c3[nH]c4ccccc4c3C[C@H]3C(=O)N(c4ccccc4C(=O)N4CCC(C(=O)O)CC4)C(=O)N23)cc1 (stereo partly drawn),-4.1,·,·,-1.4,·,
CC(C)c1ccc(NC2CCCN(C(=O)CCN3CCCCC3=O)C2)cc1 (stereo not drawn),-15.2,·,·,-0.4,·,
Cc1cc(C)n2nc(CC(=O)NNC(=O)c3ccc(N(C)C)cc3)nc2n1,0.2,·,·,-2.1,·,
COc1ccc(NC(=O)Cn2nc3n(c2=S)CCC3)cc1,-6.7,2.4,-1.5%,-3.1,-29.3,
Cn1c(SCC(=O)Nc2ccc(Br)cc2)nc(O)cc1=O,-11.6,·,-0.4%,3.1,·,
O=S(=O)(/N=C(/c1ccccc1)N1CCOCC1)c1ccc(F)cc1,-0.7,·,·,1.9,·,
Cc1ccc(C(=O)C(OC(=O)c2cnccn2)c2ccccc2)cc1C (stereo not drawn),-3.6,-3.5,-6.7%,-2.9,-1.2,
O=C(CCC(=O)Nc1nnc(C2CCCCC2)s1)NCC1CCCO1 (stereo not drawn),14.4,11.8,-2.6%,-0.8,-8.2,
COc1ccc(-n2cc(C(=O)c3cc4ccccc4oc3=O)c(C(C)=O)n2)cc1,-15.1,-4.3,-5.5%,-4.4,-8.8,
c1ccc(-c2csc(NNC3=NCCCCC3)n2)cc1,7.0,-11.0,9.3%,-4.1,-17.0,
O=C(CSc1ccc2c(c1)OCCO2)Nc1ccc2c(c1)OCO2,8.1,-6.1,56.6%,0.8,-1.3,
O=C(Nc1ccc(N2CCOCC2)c(Cl)c1)c1ccc(-n2cnnc2)cc1Cl,2.4,·,·,-1.1,·,
CCOC(=O)CN(C#N)c1nc(N(C)C)nc(N(C)C)n1,98.9,12.5,9.34µM*,-4.7,·,
Cc1[nH]nc2c1C(c1cccc(O)c1)C1=C(CC(C)(C)CC1=O)N2 (stereo not drawn),-13.7,9.5,-2.4%,-0.1,-36.2,
Cc1nnc2n1CCCCC2,-5.6,·,-3.3%,0.7,·,
Cc1ccc(C2=NN(CC(=O)NCc3cccnc3)C(=O)CC2)cc1,-4.0,-9.6,-2.8%,1.6,15.7,
Cn1c(=O)c2c(nc(NCCOc3ccc(C(C)(C)C)cc3)n2C)n(C)c1=O,3.4,2.7,1.5%,-0.1,-2.8,
Cc1ccccc1NS(=O)(=O)c1cccc2nsnc12,8.4,·,·,-0.2,·,
COc1ccc(Cl)cc1C(=O)NNC(=O)c1cccc(S(=O)(=O)N(C)C)c1,1.2,1.1,-1.3%,-6.5,-16.2,

# From PubChem
